FGF22 binding = shifts melting point of recombinant human FGF22; AID 651658; calls only at 9.99 µM; recombinant FGF22 thermal shift, SYPRO orange fluorescence; percent of sucrose octasulfate shift, DMSO zero; actives 1.5% (n = 340,000); Q9HCT0;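 active = melting point raised past a set limit in the mean and every replicate; inconclusive = no clear call; three in four hits are not shown here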
Target sequence (Q9HCT0 whole entry, looked up): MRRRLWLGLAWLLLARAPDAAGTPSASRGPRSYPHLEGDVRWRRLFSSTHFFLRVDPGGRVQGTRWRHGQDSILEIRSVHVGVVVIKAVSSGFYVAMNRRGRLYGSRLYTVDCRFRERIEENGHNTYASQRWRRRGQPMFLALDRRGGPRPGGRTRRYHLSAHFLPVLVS
UCH37 DUB inh = human UCH37 deubiquitinating enzyme inhibition; purified proteasome/UCH37, Ub-AMC cleavage fluorescence; inhibition, % (test concentration not listed); actives 0.33% (n = 330,000); AID 588478;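 active = mean of two replicates above 20%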;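 note: 0% = compound-free wells with enzyme and 100% = wells lacking proteasome; stock transfer was 100 nL into about 20 µL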
Target sequence (Q9Y5K5 whole entry, looked up): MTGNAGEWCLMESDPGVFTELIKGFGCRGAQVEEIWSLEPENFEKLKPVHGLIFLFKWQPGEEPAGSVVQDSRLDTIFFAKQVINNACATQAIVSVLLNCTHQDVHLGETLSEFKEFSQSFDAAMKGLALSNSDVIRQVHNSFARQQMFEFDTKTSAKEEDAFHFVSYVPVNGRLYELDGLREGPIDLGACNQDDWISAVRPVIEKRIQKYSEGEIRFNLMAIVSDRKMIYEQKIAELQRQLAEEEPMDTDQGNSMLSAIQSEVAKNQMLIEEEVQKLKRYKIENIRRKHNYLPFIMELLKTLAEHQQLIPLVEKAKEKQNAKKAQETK
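Assay system: Proteasome-bound UCH37. Buffer or medium: pH 7.4 Tris-HCl (50 mM) with ovalbumin, ATP-MgCl2, DTT. Incubation: 30 min preincubation with enzyme, 25 min cleavage at room temperature. Measured by: fluorescence, ex 355 nm, em 460 nm. Read-out basis: percent inhibition. Control set: wells without proteasome as full block, compound-free enzyme plus substrate as uninhibited.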
RanGTP-Impb inh = inhibitors of RanGTP-importin-beta interaction, primary screen, biochemical, FRET, CFP-Ran, YFP-importin-beta, homogeneous | cell-free CFP-Ran/YFP-importin-beta FRET ratio | inhibition, % (no concentration beside the values) | actives 1.1% (n = 300,000) | AID 2216;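 active = most replicates above 15%; inconclusive = exactly half above 15%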;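 note: 0% = DMSO wells and 100% = Ran loaded with GDP instead of GTP; wells of about 40 µL received 100 nL stock; the first replicate is given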
HNF4A DNA FP = change in binding of human HNF4 alpha to DNA. P41235. actives 0.3% (n = 360,000). HNF4a-FITC DNA binding, fluorescence polarization, 1 h. activity change, % at 10 µM. AID 1224865; in the data active = activity change above about 30%, passing the limit was not always enough;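 note: controls were the assay level and a saturating level of protein; the project sought stronger binding though the title names inhibitors; some compounds called inactive have numbers as strong as hits; positive values seem to mean higher polarization but the record does not say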
E coli growth = E. coli growth inhibition; Escherichia coli growth, OD600, 23 h; stronger effect = lower value; OD600 absorbance (no concentration beside the values); actives 0.21% (n = 330,000); AID 1053175;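 active = OD600 absorbance below the run mean of sample wells minus 3.6 SD, in any replicate, cut at about 0.56 in these data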;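 note: stock transfer was 300 nL into about 60 µL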
AF4-AF9 inh = MLL-AF4/AF9 protein interaction inhibition | actives 0.47% (n = 350,000) | AID 651704 | P42568 | AlphaScreen, biotin-AF4 peptide binding to FLAG-AF9 | inhibition, % at 10 µM;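 active = every replicate reaching a set inhibition limit, whatever the replicate mean, cut at about 25% in these data; inconclusive = mean inhibition reaches that limit but some replicates miss it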;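 note: 0% = plate neutral control median and 100% = total signal loss; the record names both 10 and 1 µM as test concentration; the first replicate is given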
Target sequence (P42568 whole entry, looked up): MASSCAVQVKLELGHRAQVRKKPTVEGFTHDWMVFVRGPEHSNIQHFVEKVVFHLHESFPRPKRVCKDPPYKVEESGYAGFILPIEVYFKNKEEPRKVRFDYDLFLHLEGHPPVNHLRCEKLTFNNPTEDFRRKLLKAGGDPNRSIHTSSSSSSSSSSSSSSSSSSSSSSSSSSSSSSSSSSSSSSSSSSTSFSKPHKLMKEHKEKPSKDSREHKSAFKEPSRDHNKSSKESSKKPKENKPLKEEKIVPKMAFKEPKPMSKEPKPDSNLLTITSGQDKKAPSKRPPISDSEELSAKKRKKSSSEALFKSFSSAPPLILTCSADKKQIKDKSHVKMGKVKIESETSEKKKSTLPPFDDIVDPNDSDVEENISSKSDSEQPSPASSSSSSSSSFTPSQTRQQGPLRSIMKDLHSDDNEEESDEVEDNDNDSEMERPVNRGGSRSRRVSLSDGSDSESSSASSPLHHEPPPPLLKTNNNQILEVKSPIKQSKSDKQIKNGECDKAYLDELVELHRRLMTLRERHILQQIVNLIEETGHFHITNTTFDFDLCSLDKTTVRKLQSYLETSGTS
Vif A3G = inhibitors of Vif binding to APOBEC3G peptide, primary screen, biochemical, TR-FRET, GST-Vif 1-94, biotin-A3G peptide, dose response retest (AID 1117319) | inhibition, %, or IC50 in µM where a hit was titrated | TR-FRET GST-Vif / biotin-A3G peptide binding; higher % means a stronger effect; test concentration not given here; strong numbers were not always called active | actives 0.57% (n = 260,000);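 active = above the screen mean plus three standard deviations and confirmed in dose response; inconclusive = results disagree or hit not tested in dose response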;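 note: Vif residues 1-94 fused to GST binding biotinylated APOBEC3G peptide 110-148; 0% = full assay without inhibitor and 100% = GST in place of GST-Vif; retest series ran down from 100 µM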
Starred values were filed as active, the others as inactive; i = inactive; ? = inconclusive; nt = not tested or not shown. Not all compounds are listed; the hit share may differ from the screen's.

SMILES	FGF22 binding	UCH37 DUB inh	RanGTP-Impb inh	HNF4A DNA FP	E coli growth	AF4-AF9 inh	Vif A3G
CCOC(=O)C1=C[C@@H](C2CCCC2)N(S(=O)(=O)c2ccc([N+](=O)[O-])cc2)[C@H]1c1ccccc1	i	nt	nt	3.5	nt	3.2	nt
O=C(COC(=O)C12CC3CC(CC(C3)C1)C2)NCc1ccccc1	i	2.8	nt	0.4	0.656	-3.4	nt
Cc1ncc([N+](=O)[O-])n1CC(=O)Nc1ccc(F)cc1	i	5.3	-4.9	-1.4	0.672	-13.2	-1.2%
COc1ccc(NC(=O)Cn2cc(C(=O)c3ccco3)c3ccccc32)cc1	nt	-1.7	2.4	-0.8	0.644	nt	8.8%
CN(C)c1oc(-c2ccccc2F)nc1C#N	i	-322.8	1.3	-3.1	0.716	-2.3	-0.8%
CCOC(=O)C1=C(C)NC(=O)/C1=C\N(C)C	i	7.7	-0.4	-1.6	0.696	-4.1	1.3%
Cc1ccc(-n2nnnc2CNC(=O)c2ccc([N+](=O)[O-])o2)cc1C	i	2.1	-1.8	0.8	0.655	-19.7	0.8%
CCCn1c(NCCO)nc2ccccc21	i	1.7	?	-1.0	0.663	1.6	5.6%
CCN(CC)CCNc1ccc2nnc(CCNS(=O)(=O)c3ccc(C)cc3)n2n1	i	2.1	1.2	2.6	0.697	-3.1	16.2%
COc1ccc(CNC(=O)COc2cc(O)c3c(c2)OC(C)(C)CC3=O)cc1	i	-3.2	-4.4	1.1	0.786	-1.1	nt
CN(C(=O)COC(=O)c1cccnc1Nc1cccc(C(F)(F)F)c1)C1CCS(=O)(=O)C1 (stereo not drawn)	nt	-4.7	-2.4	-4.8	0.669	nt	nt
Cc1[nH]c2ccccc2c1C(=O)CN1CC(C)OC(C)C1 (stereo not drawn)	nt	5.1	-1.5	nt	0.666	nt	27.7%
CCn1ncc(S(=O)(=O)Nc2cccnc2)c1C	i	0.3	-3.9	2.0	0.644	-1.9	5.2%
Cc1c(N)cccc1-c1nc2ccccc2[nH]1	nt	-2.7	-3.2	0.0	0.748	nt	21.6%
O=[N+]([O-])c1ccccc1S(=O)(=O)Nc1cccc(-c2ccc3nncn3n2)c1	i	5.2	-1.3	0.7	0.716	0.3	3.6%
COCCn1c(C)cc(C(=O)COc2ccc(N(C)S(=O)(=O)c3ccc(C)cc3)cc2)c1C	i	4.0	nt	0.1	0.723	4.1	nt
CC(=O)N1CCC(C(=O)N2CCN(S(=O)(=O)c3ccc(F)cc3)CC2)CC1	i	1.8	0.5	1.7	0.703	-12.7	nt
Cc1ncc(CN2CCC(C(=O)Nc3ccc(-n4cccn4)cc3)CC2)s1	i	1.1	-2.3	-5.2	0.696	-0.1	4.0%
C/C(=N\O)c1ccc(Cl)cc1Cl	i	nt	6.5	-0.9	nt	3.8	7.7%
CC(=O)c1cc2c(cc1N/C(=N/S(=O)(=O)c1ccc(C)cc1)c1ccc(Cl)cc1)OCO2	nt	-44.2	6.0	-1.5	0.709	nt	-1.9%
CCCN1C(=O)c2cc(C(=O)Nc3cccc(C(C)=O)c3)ccc2C1Nc1cccc(C(C)=O)c1 (stereo not drawn)	i	-6.9	0.8	-0.6	0.651	0.4	-13.5%
O=C(Nc1nc(-c2cccs2)c(-c2ccccc2)s1)c1ccco1	nt	-2.7	-1.0	2.0	0.745	nt	2.8%
CC(C)OC(=O)CSc1nnc(-c2cnccn2)n1Cc1ccco1	nt	0.9	2.9	-1.6	0.732	nt	-4.1%
CCN(c1cccc(C)c1)S(=O)(=O)c1csc(C(N)=O)c1	i	-1.1	1.3	-49.4	0.706	0.5	2.7%
CSCc1ccc(C(=O)NCCSc2ccc(Br)cc2)cc1	i	0.4	4.8	-1.9	0.728	-3.6	-5.7%
O=C(CCN1C(=O)C2CC=CCC2C1=O)Nc1cccc(Cl)c1 (stereo not drawn)	i	2.1	-0.8	0.3	0.69	-0.1	-1.6%
Cn1c(=O)c2c(ncn2CCOc2ccc(Br)cc2)n(C)c1=O	i	6.9	-0.1	3.0	0.657	-0.3	nt
COC(=O)c1c(NC(=O)c2ccccc2[N+](=O)[O-])sc2c1CC(C)(C)NC2(C)C	i	4.2	3.4	4.6	0.609	5.6	nt
COc1ccc(C(C(=O)NC2CCCC2)N(Cc2ccco2)C(=O)c2snc(C(N)=O)c2N)cc1OC (stereo not drawn)	i	nt	?	-3.1	nt	-1.6	-11.7%
CCNC(=O)c1ccc(CSc2nc3ccccc3s2)cc1	i	-2.0	2.7	-1.3	0.643	1.1	nt
O=C(CSc1ccc(Br)cc1)NC1CCCCCC1	i	5.2	nt	0.7	0.734	1.6	-4.0%
CC(NC(=O)CSc1nc2ccc(N)cc2s1)c1ccccc1 (stereo not drawn)	nt	1.3	7.7	7.1	0.644	-0.7	2.6%
CC[C@@H]1Cc2cc(O)ccc2C2=C1c1ccc(O)cc1C[C@H]2CC	i	-173.8	nt	-2.3	nt	7.7	nt
Cc1cc(C(=O)CN2C(=O)NC(C)(CC(C)C)C2=O)c(C)n1-c1ccc2c(c1)OCO2 (stereo not drawn)	i	3.6	-2.4	2.8	0.675	-0.3	nt
CCOC(=O)Cc1csc(NC(=O)c2sc3nc4ccc(CC)cc4cc3c2N)n1	i	1.5	-3.0	33.7	0.658	5.6	4.2%
O=S(=O)(c1ccccc1)N1CCN(C(=S)NC2CCCC2)CC1	i	1.4	nt	0.4	0.688	0.2	-2.8%
Cc1ccsc1/C=N/Nc1nc2ccccc2[nH]1	nt	nt	2.9	0.5	nt	14.4	nt
Cc1ccc(CNC(=O)C2CCCN(S(=O)(=O)c3cccc4nonc34)C2)cc1 (stereo not drawn)	i	1.7	0.2	2.5	0.702	-0.5	nt
Cc1nc(NC(=O)CSc2nnc(-c3ccccc3)c(-c3ccccc3)n2)c(Cl)cc1Cl	nt	3.2	0.8	3.9	0.731	nt	nt
c1ccc2nc(-c3nc4ccccc4[nH]3)ccc2c1	nt	-16.2	2.0	-0.6	0.72	nt	-0.3%
CN(Cc1cccc(F)c1)C(=O)c1ccc(NS(=O)(=O)c2ccc3[nH]c(=O)[nH]c3c2)cc1	i	3.7	2.7	2.1	0.664	-0.2	-0.9%
C/C(=N/NC(=O)c1ccc2nc[nH]c2c1)c1cccs1	i	nt	0.5	3.4	nt	-3.9	?
C=C1CCN(C(C(=O)OC)C(C)C)S(=O)(=O)c2ccc(F)cc21 (stereo not drawn)	i	-0.9	-3.5	-6.2	0.691	nt	nt
Nc1cc(Cl)ccc1C(=O)OCC(=O)N1CCCCCC1	i	-90.3	nt	-7.0	0.666	-4.1	nt
O=C(c1cc(-c2ccc(Cl)c(Cl)c2)on1)N1CCOCC1	i	2.5	1.6	-0.1	0.686	-3.5	-3.2%
O=C(c1cc(C2CC2)nn1-c1ccccc1)N1CCN(c2ccccc2O)CC1	i	-1.8	nt	-1.2	0.698	4.7	nt
N#CC1(C#N)OC12CCS(=O)(=O)c1ccccc12 (stereo not drawn)	i	nt	nt	3.7	nt	-0.3	nt
Cn1cc(Cl)nc1C(O)c1ccccc1 (stereo not drawn)	i	-1.7	0.8	-1.6	0.713	-3.6	nt
CS(=O)(=O)N1CCN(C(=S)NCc2ccc(Cl)cc2)CC1	i	-0.8	3.4	1.1	0.652	-0.4	-2.2%
C/C(=N\NC(=O)c1cc(Cl)ccc1O)c1ccc(Br)s1	nt	nt	3.5	1.3	nt	nt	-4.2%
Cc1ccc(-c2nc(CS(=O)CC(=O)NCCN3CCOCC3)c(C)o2)cc1 (stereo not drawn)	i	0.2	-4.8	-3.5	0.773	1.9	20.4%
COC(=O)c1ccc(CSc2nnc(CNC(=O)c3ccccc3F)o2)o1	nt	0.7	-2.9	0.0	0.75	nt	5.2%
CCN(CC)S(=O)(=O)c1ccc(OC)c(NS(=O)(=O)c2ccc(F)cc2)c1	nt	5.2	-1.9	-4.8	0.66	nt	7.5%
Cc1ccccc1CSCC(=O)NC(=O)NC(C)(C)C	nt	2.9	-1.4	1.1	0.709	nt	1.8%
CSCCC(NC(=O)c1ccccc1Cl)C(=O)NCc1ccncc1 (stereo not drawn)	i	-0.9	nt	1.4	0.668	-2.8	15.1%
Cc1ccc(-n2ncc3c(NNC(=O)c4ccco4)ncnc32)cc1C	i	-3.1	-0.5	1.7	0.688	-1.1	-0.5%
COc1cccc(-c2ccc3nccn3c2)c1	i	nt	nt	15.1	nt	-1.7	nt
O=C(NCc1ccccc1)C(c1cccs1)N(C(=O)c1csnn1)C1CC1 (stereo not drawn)	nt	1.4	-1.3	-0.1	0.689	nt	1.9%
COCCN(C(=O)CC(C)(C)C)c1nnc(-c2cccnc2)s1	nt	-0.4	5.2	3.4	0.703	nt	-1.4%
COc1ccc(C(=Cc2ccccc2[N+](=O)[O-])C(=O)O)cc1	i	1.8	nt	-1.0	0.656	3.5	-4.2%

Following part
SMILES	FGF22 binding	UCH37 DUB inh	RanGTP-Impb inh	HNF4A DNA FP	E coli growth	AF4-AF9 inh	Vif A3G
Cc1cc(C)n2c(SCC(=O)Nc3cccc(S(N)(=O)=O)c3)nnc2n1	i	0.1	nt	-0.3	0.671	-3.1	-3.3%
COc1ccc2nc(SCc3cccc(C)c3)nc(C)c2c1	nt	nt	4.4	1.2	nt	nt	8.7%
CC(C)C[C@H]1CN=C(Nc2ccccc2)N1CC1CCCC1	i	0.9	0.6	0.2	nt	-3.6	nt
Cc1ccccc1OCC(=O)N/N=C/c1ccc(N2CCOCC2)o1	i	nt	nt	-2.8	nt	-1.1	nt
CC(C)CSc1nc(N2CCOCC2)c2c(c1C#N)CC(C)(C)SC2	nt	-3.5	nt	-0.5	0.735	nt	10.5%
Cc1cccc(C)c1-n1nnnc1C(C1CC1)N1CCN(C/C=C/c2ccccc2)CC1 (stereo not drawn)	i	nt	nt	-4.0	nt	10.8	nt
CC(=O)NCCc1nc2cc(NC(=O)COc3cccc(C)c3)ccc2n1C	i	1.9	-4.1	1.1	0.691	0.2	27.5%
CC(C)OC(=O)N(C)c1ccc(C(O)(C(F)(F)F)C(F)(F)F)cc1	nt	3.3	4.0	0.1	0.66	nt	-7.6%
Fc1cccc(CCN2C(=S)NC[C@@H]2Cc2ccccc2)c1	i	5.3	-0.9	-4.4	nt	1.1	-11.8%
CCc1ccc2c(c1)C(c1ccncc1)=NNC(c1ccccc1)=N2	i	2.8	0.8	-3.5	0.7	3.3	13.9%
COc1cccc(C(N)=O)c1OC(=O)Cc1ccccc1F	i	2.6	8.6	1.8	0.653	-1.3	nt
CC1=NNC(=O)C1CC(=O)N/N=C/C(C)=C/c1ccccc1 (stereo not drawn)	i	nt	1.9	0.1	nt	0.3	31.8%
Cc1ccc(S(=O)(=O)c2cc(OC(=O)c3ccco3)ccc2OC(=O)c2ccco2)cc1	nt	1.8	-0.4	4.4	0.62	nt	6.2%
COc1ccc(-c2csc(NC(=O)c3ccc(S(=O)(=O)N4CCc5ccccc5C4)cc3)n2)cc1	i	-27.2	2.7	-1.8	0.672	5.1	19.7%
N#CC1=C(N)Oc2n[nH]c(-c3cccs3)c2C1c1ccoc1 (stereo not drawn)	nt	10.9	3.6	-8.1	0.756	nt	23.8%
